BJeLR viability – kills HRASV12-expressing BJeLR cells; BJeLR (HRASV12) viability, CellTiter-Glo ATP luminescence, 48 h; reference of the scale not given here; inhibition, % (no concentration beside the values); 0.17% of 300,000 active; AID 1554;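 active = replicate mean above 50%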;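 note: 50 nL library stock added to about 25 µL; numbers are from one replicate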
Mtb hypoxia inh – inhibitors of hypoxia-regulated fluorescent reporter in Mycobacterium tuberculosis | M. tuberculosis hypoxia-regulated fluorescent reporter, fluorescence | fluorescence inhibition, % (no concentration beside the values) | 0.1% of 300,000 active | AID 1159583;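 active = 35 to 45% if threefold the growth effect, above 45% if 1.5-fold the growth effect; inactive = the rest, general growth blockers included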;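 note: wells of about 50 µL received 100 nL stock; 0% = vehicle wells and 100% = reference inhibitor wells; whole bacteria with a GFP reporter of the hypoxia response; strong numbers were not always called active; many hits fall short of the cut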
Sa ugtP lethal – growth inhibition of S. aureus ugtP deletion strain; S. aureus RN4220 ugtP deletion, OD600 growth, 16 h; some inactives read as strong as hits; growth inhibition, % (no concentration beside the values); 0.54% of 330,000 active; AID 1259309;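 active = z-score under -3 and OD600 up to 0.15 on both plates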;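 note: plate controls were untreated wells for no effect and antibiotic for full effect; wells of about 80 µL received 100 nL stock; the first replicate is given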
PrP 5UTR inh – inhibition of PrP 5' UTR reporter expression; cell-based PrP 5' UTR mRNA reporter, plate reader; 0.35% of 340,000 active; AID 488862; inhibition, % (concentration not given with the values);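 active = every replicate at 50% or more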;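 note: 0 = median of the neutral control wells; tested in H4 reporter cells; numbers are from one replicate; inactives centre near -14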
RN4220 kill – S. aureus RN4220 growth inhibition; OD600, 16 h; inhibition, % (no concentration beside the values); 0.33% of 330,000 active; AID 1259311;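 active = z-score of -3 or lower and OD600 up to 0.18 on both plates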;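 note: plate controls were untreated cells for no effect and reference antibiotic for full effect; stock transfer was 100 nL into about 80 µL; one replicate is shown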
Bead autofluor – counter-screen for toxin protease inhibitors: compound fluorescence | compound autofluorescence counterscreen, microsphere flow cytometry; active compounds read high | fluorescence intensity (no concentration beside the values) | 3.1% of 360,000 active | AID 624483;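 active = at least 3 SD above the mean of all compounds, about 16000 in these data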;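 note: 100 nL of 1 mM stock went into each well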
Mtb hypoxia inh growth – recorded beside Mtb hypoxia inh, whose call it bears; growth inhibition, %; measured here: M. tuberculosis growth (absorbance);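 0% = vehicle and 100% = reference antibiotic; read after six days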
Starred values were filed as active, the others as inactive; · = not tested or not shown.

Values in the order: BJeLR viability | Mtb hypoxia inh | Mtb hypoxia inh growth | Sa ugtP lethal | PrP 5UTR inh | RN4220 kill | Bead autofluor
1. CC(C)Nc1ncnc2c1nnn2Cc1ccccc1
    6 | 10 | 14 | 14 | -16 | 1.9 | 4189
2. OCCNc1nc(C2CC2)nc2c1nnn2Cc1ccccc1Cl
    2 | 3 | 5 | 3 | -2 | 4.1 | 23293*
3. Cn1c(-c2c(N)n(-c3ccccc3)c3nc4ccccc4nc23)nc2ccccc21
    -20 | 10 | 0 | 3 | 3 | -2.7 | 2402
4. Cc1cc(C(F)F)n2nc(C(=O)Nc3ccc(F)cc3F)nc2n1
    -3 | 5 | 2 | -7 | -9 | -8.1 | 2944
5. O=C(NC(=S)NNC(=O)c1ccccc1O)c1ccccc1
    9 | -2 | -8 | 15 | -20 | 28 | 3978
6. N#Cc1cccc(-n2nnnc2-c2ccccn2)c1
    -6 | · | · | 9 | -11 | -0.5 | 2625
7. CCOC(=O)CNC(=O)Cn1cnc2c(nnn2-c2ccc(C)cc2)c1=O
    -12 | 4 | 9 | 1 | -48 | 4.6 | 18628*
8. N=C1C(c2ccccc2)=C(O)CN1c1cccc(S(=O)(=O)N2CCOCC2)c1
    13 | -1 | -4 | 11 | -13 | 2.5 | 4396
9. Cc1c(NC(=O)CSc2ncnc3ccccc23)c(=O)n(-c2ccccc2)n1C
    1 | 18 | -1 | 3 | -13 | 1.9 | 4144
10. Cc1ccc(S(=O)(=O)N2CCCCC2)cc1C(=O)N1C(C)CCCC1C (configuration not stated)
    · | 1 | -2 | 4 | -17 | 4.4 | 6252
11. COc1ccc(S(=O)(=O)N2CCC(C(=O)NCCc3ccc4c(c3)OCO4)CC2)cc1
    -1 | 9 | 13 | 3 | -14 | 3.6 | 9765
12. COc1ccc(C(=O)C2CCCN(Cc3cccc4c3OCO4)C2)cc1OC (configuration not stated)
    9 | -7 | -5 | 0 | -11 | 1.8 | 2640
13. Cc1csc2nc(O)c(C(=O)NCCCN3CCCC3=O)c(=O)n12
    3 | 11 | -1 | 7 | -16 | 4.4 | 6142
14. Cn1c(=O)n(C)c2cc(N3CCOCC3)c(NC(=O)c3ccc(F)cc3)cc21
    -5 | 5 | 3 | -1 | -10 | 1.4 | 4415
15. CCCn1c(=O)c2[nH]cnc2n(-c2ccccc2C)c1=O
    -2 | 14 | 7 | 14 | -4 | 4.0 | 4522
16. Cc1cccc(NC(=O)C2CCCN(C(=O)NCc3ccccc3)C2)c1C (configuration not stated)
    -14 | -5 | 5 | 6 | -7 | 0.6 | 4048
17. Fc1ccc2nc3n(c2c1F)CCCCCC3
    5 | 9 | 3 | -3 | -10 | 3.5 | 9062
18. Cc1ccc(-c2nn(-c3ccccc3)cc2C(=O)O)o1
    -1 | 17 | 6 | 5 | · | 4.8 | ·
19. CCOC(=O)C(C(=O)N(C)Cc1ccccc1)C1CCCCC1 (configuration not stated)
    9 | -6 | -10 | -5 | -12 | 1.5 | 3576
20. CC(C)NC(=O)C(=O)NC1CCCCCC1
    -7 | · | · | 1 | -12 | 1.9 | 2320
21. CCOP1(=O)C=C(C(C)(C)C)OC1c1ccc(F)cc1 (configuration not stated)
    -2 | 2 | 4 | -8 | -16 | 0.0 | 2444
22. Cc1ccc(NC(NC(=O)c2ccccn2)C(Cl)(Cl)Cl)cc1 (configuration not stated)
    5 | 4 | 3 | -2 | -58 | 1.3 | 10683
23. NC(=O)C1(N2CCCCC2)CCN(Cc2ccccc2Cl)CC1
    -2 | 4 | 5 | -9 | -3 | -2.4 | 8383
24. Cc1cc(C)c(NC(=O)CS(=O)CC(=O)NCCCc2ccccc2)c(C)c1 (configuration not stated)
    7 | 11 | 6 | 6 | -13 | 1.9 | 10378
25. O=C(NNC1=NCCC1)c1cccc(S(=O)(=O)N2CCCC2)c1
    4 | 6 | -1 | -4 | -9 | 2.5 | 2503
26. O=C1C=C(NCc2ccc(Cl)cc2Cl)C2(CCCCC2)O1
    -1 | -4 | 2 | -17 | -7 | -2.3 | 6031
27. Cn1c(SCC(=O)N2CCc3ccccc3C2)nnc1-c1ccncc1
    11 | 1 | 1 | 17 | -10 | 3.2 | 9365
28. CCCCCc1nnc(NC(=O)CN2C(=O)C3CCCCC3C2=O)s1 (configuration not stated)
    -7 | 5 | -4 | 0 | -7 | 8.7 | 4052
29. CN(C)CCNC(=O)Cn1nc(-c2ccc(Cl)cc2)ccc1=O
    1 | 6 | 7 | 5 | -12 | 6.0 | 2161
30. Brc1cc2c(cc1C1Nc3ccccc3C3C=CCC31)OCO2 (configuration not stated)
    -2 | 11 | 3 | 45 | -18 | -20 | 2442

Rewritten as labelled records: part of the list above
[10] Cc1ccc(S(=O)(=O)N2CCCCC2)cc1C(=O)N1C(C)CCCC1C (configuration not stated)
  BJeLR viability: ·	Mtb hypoxia inh: 1	Mtb hypoxia inh growth: -2	Sa ugtP lethal: 4	PrP 5UTR inh: -17	RN4220 kill: 4.4	Bead autofluor: 6252

[19] CCOC(=O)C(C(=O)N(C)Cc1ccccc1)C1CCCCC1 (configuration not stated)
  BJeLR viability: 9	Mtb hypoxia inh: -6	Mtb hypoxia inh growth: -10	Sa ugtP lethal: -5	PrP 5UTR inh: -12	RN4220 kill: 1.5	Bead autofluor: 3576

[15] CCCn1c(=O)c2[nH]cnc2n(-c2ccccc2C)c1=O
  BJeLR viability: -2	Mtb hypoxia inh: 14	Mtb hypoxia inh growth: 7	Sa ugtP lethal: 14	PrP 5UTR inh: -4	RN4220 kill: 4.0	Bead autofluor: 4522

[23] NC(=O)C1(N2CCCCC2)CCN(Cc2ccccc2Cl)CC1
  BJeLR viability: -2	Mtb hypoxia inh: 4	Mtb hypoxia inh growth: 5	Sa ugtP lethal: -9	PrP 5UTR inh: -3	RN4220 kill: -2.4	Bead autofluor: 8383

Next part.
Values in the order: BJeLR viability | Mtb hypoxia inh | Mtb hypoxia inh growth | Sa ugtP lethal | PrP 5UTR inh | RN4220 kill | Bead autofluor
31. Cc1cccc2cc(CN(CCCN3CCOCC3)Cc3nnnn3C(C)(C)C)c(=O)[nH]c12
    -9 | 8 | 1 | 5 | -16 | 2.6 | 11328
32. Cc1cc(C)c(C2=CC(=O)CC(c3ccc4c(c3)OCO4)C2)c(C)c1 (configuration not stated)
    · | 5 | 8 | 2 | · | 0.3 | ·
33. COc1cc(/C=C2\SC(=Nc3ccc(Cl)c(C(=O)O)c3)NC2=O)c(Br)c(Br)c1O
    -1 | · | · | · | -1 | · | 3310
34. O=S(=O)(N/N=C\c1ccc2c(c1)OCO2)c1ccc(F)cc1
    4 | · | · | · | -4 | · | 6219
35. O=C(N1CCC(O)(c2cccnc2)CC1)C12CC3CC(CC(C3)C1)C2
    8 | · | · | 7 | -23 | 4.5 | 3978
36. C#CCn1c(=NC(=O)c2ccccc2[N+](=O)[O-])sc2cc(S(C)(=O)=O)ccc21
    -34 | · | · | · | -28 | · | 1992
37. O=C(Cn1nc(C(=O)O)c2ccccc2c1=O)Nc1cccc(S(=O)(=O)N2CCCC2)c1
    · | -8 | -3 | 1 | -3 | 4.1 | ·
38. O=C(C1CCN(S(=O)(=O)c2ccccc2[N+](=O)[O-])CC1)N1CCOCC1
    7 | 9 | -9 | 1 | -20 | 0.9 | 4186
39. CCN(CC)CCC#CC1(O)c2ccccc2-c2ccccc21
    -4 | 3 | -3 | 2 | -10 | 0.9 | 4569
40. O=C(Oc1oc(-c2ccco2)nc1C=Nc1ccccc1)c1ccoc1
    1 | 11 | 0 | 7 | -19 | 4.1 | 5503
41. O=C(O)c1cc(-c2ccc(/C=C3\NC(=O)N(c4ccc(Cl)cc4)C3=O)o2)ccc1Cl
    4 | 1 | 1 | 7 | -17 | 4.8 | 2546
42. Cc1oc2cc(Br)c(O)c(Br)c2c1-c1ccccc1
    7 | 18 | 6 | 87* | -38 | -3.6 | 3729
43. FC(F)(F)c1ccnc(NCc2ccc(Cl)cc2)n1
    -1 | 0 | 3 | 3 | 0 | -1.3 | 2967
44. COc1ccccc1-c1cc(C(F)(F)F)nc(S(=O)(=O)CCCC(=O)O)n1
    4 | -2 | -7 | 7 | -2 | 0.9 | 12015
45. COc1ccc(CC2C(=O)NC(=O)NC2=O)c(OC)c1
    0 | 2 | 5 | -6 | -8 | -17 | 3656
46. CCOc1cc(C(=O)Nc2nnc(CC)s2)ccc1OCC(=O)N1CCOCC1
    6 | · | · | -4 | -10 | 3.2 | 4330
47. NS(=O)(=O)OCC(Cc1ccccc1)N1C(=O)c2ccccc2C1=O (configuration not stated)
    -3 | -4 | -8 | 3 | -34 | 7.8 | 4284
48. O=c1cc(CSc2nnc(NC3CCCCC3)s2)nc2sccn12
    3 | 5 | -3 | 5 | -12 | 2.7 | 2114
49. CCc1ccc(NC(=O)CSc2nnc(CNC(=O)c3c(F)cccc3Cl)o2)cc1
    -10 | · | · | 2 | -9 | -0.9 | 3991
50. O=C(COc1cccnc1[N+](=O)[O-])c1c[nH]c2ccccc12
    10 | -3 | -7 | 0 | 5 | -2.3 | 4386
51. Cc1ccc2nc(-c3ccc(NS(=O)(=O)c4ccc(F)cc4)cc3)sc2c1
    -1 | 4 | -2 | 82 | -90 | 31 | 2005
52. CCOC(=O)c1ccc(NC(=S)NC(=O)c2nn(CC)cc2Br)cc1
    5 | 14 | 14 | 3 | -32 | 2.6 | 10383
53. COc1ccc(Oc2nc(-c3ccccc3)ncc2S(=O)(=O)c2ccccc2)cc1
    -2 | · | · | 1 | -17 | 7.0 | 2451
54. NS(=O)(=O)c1ccc(NC(=O)c2c(Cl)cccc2Cl)cc1
    -4 | 4 | 0 | 0 | -44 | 5.2 | 4730
55. Cc1ccc(C)c(NC(=O)CSc2nc3[nH]ncc3c(=O)[nH]2)c1
    -21 | 6 | 4 | 8 | -19 | 2.0 | 2392
56. CC=C(C)C(=O)Nc1cccc(C2=NOC3(C2)CC(C(N)=O)N(C(=O)CC)C3)c1 (configuration not stated)
    · | 7 | 2 | 4 | · | 6.1 | ·
57. C/C(=C\C=C(C#N)C#N)c1cc(C#N)c(N)o1
    8 | · | · | · | 0 | · | 4043
58. CN1CCO/C1=C(\C(Cl)=C(Cl)Cl)[N+](=O)[O-]
    -6 | 5 | -1 | 2 | -10 | 3.7 | 4272
59. O=C(NCCSc1ccccc1)c1ccc(CN2CCOCC2)cc1
    8 | 12 | 6 | 13 | -125 | -0.2 | 5628
60. COc1ccc(OCC(=O)Nc2nc3ccccc3[nH]2)cc1
    7 | -4 | 0 | 7 | -51 | 4.4 | 3250

61. N#Cc1c(SCC(=O)Nc2nncs2)sc2c(O)cc(=O)[nH]c12
62. O=C(COc1ccccc1)N(Cc1cccs1)C1CCS(=O)(=O)C1 (configuration not stated)
63. CC(C(=O)NCc1cccnc1)c1ccc([N+](=O)[O-])cc1 (configuration not stated)
64. Cc1cc(NC(=O)CSc2nc3ccccc3n2CC(=O)N2CC(C)CC(C)C2)no1 (configuration not stated)
65. COC(=O)Cc1c(OC)ccn(CCc2c[nH]c3ccccc23)c1=O
66. COc1ccccc1C(=O)NCC(=O)OCC(=O)c1ccc2c(c1)-c1ccccc1C2
67. O=C(NCCc1nnc2ccccn12)c1cccs1
Assay by compound | 61 | 62 | 63 | 64 | 65 | 66 | 67
BJeLR viability | 0 | 1 | -9 | 6 | 3 | -1 | -3
Mtb hypoxia inh | · | 1 | 0 | 6 | 9 | 3 | 1
Mtb hypoxia inh growth | · | 4 | 5 | 5 | 15 | 1 | -4
Sa ugtP lethal | · | 5 | -3 | -1 | 4 | -13 | 2
PrP 5UTR inh | 12 | -15 | -16 | -34 | -70 | -8 | -11
RN4220 kill | · | 2.2 | -2.0 | 3.8 | 2.3 | 9.8 | 1.5
Bead autofluor | 5814 | 4980 | 4049 | 23778* | 4399 | 7350 | 4925

Grouped by structure: the compounds so far containing a cyano group.
6. N#Cc1cccc(-n2nnnc2-c2ccccn2)c1
57. C/C(=C\C=C(C#N)C#N)c1cc(C#N)c(N)o1
61. N#Cc1c(SCC(=O)Nc2nncs2)sc2c(O)cc(=O)[nH]c12
Assay by compound | 6 | 57 | 61
BJeLR viability | -6 | 8 | 0
Mtb hypoxia inh | · | · | ·
Mtb hypoxia inh growth | · | · | ·
Sa ugtP lethal | 9 | · | ·
PrP 5UTR inh | -11 | 0 | 12
RN4220 kill | -0.5 | · | ·
Bead autofluor | 2625 | 4043 | 5814

Assay outcomes: PubChem, several laboratories
